# Screens (PubChem BioAssay)
# Rango-impB inh – qHTS Assay for Inhibitors of Rango (Ran-regulated importin-beta cargo) - Importin beta complex formation | Rango CFP/YFP FRET sensor + importin beta, 45 min | Potency, µM (doses to about 92.2 µM), for inactives: at the highest dose inhibition of complex formation | 0.031% of 340,000 active; active = rising FRET ratio curve, often small or poorly fitted; inconclusive = mostly compound fluorescence or quenching in the first reads; inactive = flat curves in all reads;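 further: potency means the concentration at half of the fitted maximal effect; 0% = DMSO wells and 100% = buffer wells lacking importin beta; nearly all actives have a fitted effect of over 15% in size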
#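 Inhibition scored from the CFP 486 nm/YFP 530 nm FRET ratio 45 min after adding 0.125 microM importin beta to 50 nM Rango biosensor preincubated 5 min with compound (room temperature, PBS with DTT, Tween-20, BSA). No-importin wells as positive control.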
# GLA inh pH 4.5 – qHTS Assay for Inhibitors of Human alpha-Galactosidase at pH 4.5. Alpha-galactosidase A (Homo sapiens), P06280. purified enzyme, 4-MU-alpha-Gal fluorescence, pH 4.5. activity change, negative = inhibition, % at 105 µM. 230,000 tested, under 10 active. AID 1467, 2008; inconclusive = small, poorly fitted or top-dose-only inhibition, or a rising curve; inactive = flat fitted curve, though single readings scatter; no compound was filed as active;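 further: 0% = full activity with enzyme and -100% = basal without enzyme; dose as in the result columns while the protocol names 77 µM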
# Target sequence (P06280 whole entry, looked up): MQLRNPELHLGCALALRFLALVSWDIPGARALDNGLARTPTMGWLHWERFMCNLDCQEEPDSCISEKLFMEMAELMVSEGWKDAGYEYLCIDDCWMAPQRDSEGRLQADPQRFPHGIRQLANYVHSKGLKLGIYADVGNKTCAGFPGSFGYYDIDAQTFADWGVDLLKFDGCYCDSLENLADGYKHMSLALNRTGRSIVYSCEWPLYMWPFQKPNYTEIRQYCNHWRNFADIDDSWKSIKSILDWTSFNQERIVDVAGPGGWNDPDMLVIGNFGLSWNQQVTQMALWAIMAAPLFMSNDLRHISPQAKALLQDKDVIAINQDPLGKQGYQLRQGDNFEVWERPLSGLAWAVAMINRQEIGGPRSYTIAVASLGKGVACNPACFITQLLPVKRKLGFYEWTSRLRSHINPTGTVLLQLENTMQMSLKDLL
# miR-21 FLuc – qHTS Assay for Modulators of miRNAs and/orActivators of miR-21; Potency, µM (titrated, usually from 38.3 µM), without a hit: at the highest dose reporter change, positive = more light; 340,000 tested, under 10 active; HeLa miR-21 FLuc reporter, luciferase, 48 h; active = well fitted rising curve with a large enough effect; inconclusive = small, poorly fitted or top-dose-only effect; inactive = no such curve, though single readings can be large or run the other way;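 further: % of control where 0% means no effect; miR-21 action dims this reporter so a rising signal means less miR-21 action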
#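 HeLa cells endogenously expressing miR-21, stably carrying CMV-driven firefly luciferase with a downstream miR-21 binding site, 2000 cells/well. Titrations up to approximately 40 uM, 48 hours; luciferase luminescence read.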
# Rango release inh – qHTS Assay for Inhibitors of RanGTP induced Rango (Ran-regulated importin-beta cargo) - Importin beta complex dissociation. AID 540253, 2011. Biochemical FRET Rango-importin beta, RanGTP-induced dissociation. Potency, µM (titrated, usually from 46.1 µM), for inactives: at the highest dose activity change, negative = inhibition. Snurportin-1 (Homo sapiens) + GTP-binding nuclear protein Ran (Homo sapiens) + Importin …. 0.071% of 340,000 active; active means falling FRET ratio curve, often poorly fitted, with flat reads before Ran was added; inconclusive means other falling curves, or compound fluorescence or quenching; inactive means flat or rising ratio curve;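 further: potency means the concentration at half of the fitted maximal effect; % of control where 0% means no effect; nearly all actives have a fitted effect of over 45% in size; -100% = wells without RanGTP and RCC1; the record marks most hits as doubtful in a second field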
#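 Rango/importin beta premix (0.1/0.25 uM final), PBS + 1 mM DTT + 0.02% Tween-20 + 0.1% BSA; cpd 5 min RT; FRET pre-read; + RanGTP-RCC1 (0.6 uM Ran, 2 mM GTP, 0.2 uM RCC1); 45 min RT; FRET post-read, ex 430, em 486/530 nm.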
# Numbers without * were called inactive; ? = inconclusive; / = no result given. Only part of the results is shown; the hit share may differ from the screen's.
SMILES,Rango-impB inh,GLA inh pH 4.5,miR-21 FLuc,Rango release inh
Cc1cccc(OCCOC(=O)c2ccc(F)c(S(=O)(=O)N3CCOCC3)c2)c1,-4.5%,/,/,10%
c1cnc2ccc(-c3ccc4ncccc4c3)cc2c1,-7.8%,/,-22%,?
COc1ccc(CC(=O)Nc2sc3c(c2C(N)=O)CCCC3)cc1,0.1%,/,-17%,-26%
COc1ccc(-c2noc(CN(C(=O)c3ccc4c(c3)OCO4)C(C)C)n2)cc1OC,4.5%,/,/,-1%
COCCCNc1nnc(Cc2ccc(Cl)cc2)c(=O)[nH]1,?,/,19%,-10%
COc1ccc(-c2c3c(cc4ncn(Cc5ccccc5)c24)COC3=O)cc1,-3.3%,/,/,-5%
Cc1ccc(CCNC(=O)C2CCC(=O)N(Cc3cccc(F)c3)C2)cc1 (stereo not given),-2.8%,/,-9%,5%
CC(C)c1ccc(CN(C(=O)c2cccs2)C2CCS(=O)(=O)C2)cc1 (stereo not given),0.6%,/,-3%,-9%
CCN(CCCNC(=O)CCc1nc(-c2ccc(OC)cc2)no1)c1cccc(C)c1,-0.8%,-5,18%,8%
CC1CC(C)CN(S(=O)(=O)c2ccc3c(c2)CC(=O)N3)C1 (stereo not given),1.5%,/,/,-9%
O=C(CSc1ccc(Cl)cc1)Nc1cc(-c2nc3ncccc3o2)ccc1Cl,/,-27,-16%,/
COc1cc(/C=N/O)ccc1OCc1ccc(C(=O)O)cc1,-1.4%,-10,-18%,0%
CCN=C1S/C(=C\c2cn(C(C)=O)nc2-c2ccccc2)C(=O)N1CC,0.4%,-6,-17%,-12%
CCOC(=O)c1nn(-c2ccccc2)c2nnc(Cc3ccc(Cl)cc3)c(=O)n12,0.4%,-17,-4%,0%
COCCN1Cc2cccc(C(=O)Nc3cccc(OC)c3)c2C1=O,0.0%,2,-4%,-23%
Cc1ccc(-c2noc(CCC(=O)Nc3ccc(C)cn3)n2)cc1,-1.0%,2,4%,10%
Cc1cc(C)c2cc(C(=O)N3CCc4ccccc4C3)[nH]c2c1,5.2%,-6,-4%,1%
O=C(NCCOc1ccccc1)c1ccccc1SCC(=O)N1CCCC1,0.3%,/,/,1%
COCc1cc(SC2CCCCC2)nc(C)n1,-0.5%,6,-10%,8%
COc1cc(C(=O)NCc2nnc(SCC(=O)Nc3ccc4c(c3)OCO4)o2)cc(OC)c1OC,-0.2%,-6,-1%,-5%
Cc1ccc(S(=O)(=O)Nc2cc(C(=O)NCCN(C)C)ccc2N2CCCCC2)cc1,-2.2%,-1,-5%,-7%
CC(C)Oc1ccc(C(=O)Nc2cccc(S(=O)(=O)N3CCCC3)c2)cc1,-3.7%,/,/,-9%
COc1ccc(CN2CCN(Cc3ccco3)CC2)c(OC)c1,3.5%,/,-3%,-15%
CC1CCN(C(=O)CSCC(=O)Nc2nc(-c3cccs3)cs2)CC1,0.2%,-22,-31%,-4%
CCOC(=O)c1cc2c(=O)n3ccccc3nc2n(C(C)C)c1=NC(=O)c1ccncc1,?,-5,-25%,?

# Quoted from the listing (18 entries):
SMILES,Rango-impB inh,GLA inh pH 4.5,miR-21 FLuc,Rango release inh
CC(C)c1ccc(CN(C(=O)c2cccs2)C2CCS(=O)(=O)C2)cc1 (stereo not given),0.6%,/,-3%,-9%
CCN(CCCNC(=O)CCc1nc(-c2ccc(OC)cc2)no1)c1cccc(C)c1,-0.8%,-5,18%,8%
CC1CC(C)CN(S(=O)(=O)c2ccc3c(c2)CC(=O)N3)C1 (stereo not given),1.5%,/,/,-9%
O=C(CSc1ccc(Cl)cc1)Nc1cc(-c2nc3ncccc3o2)ccc1Cl,/,-27,-16%,/
COc1cc(/C=N/O)ccc1OCc1ccc(C(=O)O)cc1,-1.4%,-10,-18%,0%
CCN=C1S/C(=C\c2cn(C(C)=O)nc2-c2ccccc2)C(=O)N1CC,0.4%,-6,-17%,-12%
CCOC(=O)c1nn(-c2ccccc2)c2nnc(Cc3ccc(Cl)cc3)c(=O)n12,0.4%,-17,-4%,0%
COCCN1Cc2cccc(C(=O)Nc3cccc(OC)c3)c2C1=O,0.0%,2,-4%,-23%
Cc1ccc(-c2noc(CCC(=O)Nc3ccc(C)cn3)n2)cc1,-1.0%,2,4%,10%
Cc1cc(C)c2cc(C(=O)N3CCc4ccccc4C3)[nH]c2c1,5.2%,-6,-4%,1%
O=C(NCCOc1ccccc1)c1ccccc1SCC(=O)N1CCCC1,0.3%,/,/,1%
COCc1cc(SC2CCCCC2)nc(C)n1,-0.5%,6,-10%,8%
COc1cc(C(=O)NCc2nnc(SCC(=O)Nc3ccc4c(c3)OCO4)o2)cc(OC)c1OC,-0.2%,-6,-1%,-5%
Cc1ccc(S(=O)(=O)Nc2cc(C(=O)NCCN(C)C)ccc2N2CCCCC2)cc1,-2.2%,-1,-5%,-7%
CC(C)Oc1ccc(C(=O)Nc2cccc(S(=O)(=O)N3CCCC3)c2)cc1,-3.7%,/,/,-9%
COc1ccc(CN2CCN(Cc3ccco3)CC2)c(OC)c1,3.5%,/,-3%,-15%
CC1CCN(C(=O)CSCC(=O)Nc2nc(-c3cccs3)cs2)CC1,0.2%,-22,-31%,-4%
CCOC(=O)c1cc2c(=O)n3ccccc3nc2n(C(C)C)c1=NC(=O)c1ccncc1,?,-5,-25%,?

# Next section
SMILES,Rango-impB inh,GLA inh pH 4.5,miR-21 FLuc,Rango release inh
COc1ccccc1/C=C/C1(C(=O)NC2CCCC2)CC(=O)N1c1ccc(C)cc1 (stereo not given),-2.6%,-7,?,19%
COc1ccc(-c2c[nH]c(=O)[nH]c2=O)cc1OC,-2.0%,-15,-11%,6%
Cc1nn(CCC(=O)NNC(=S)Nc2ccc(Cl)cc2)c(C)c1[N+](=O)[O-],-2.1%,5,0%,22%
COc1ccc(C(=O)Nc2ccccc2NC(=O)c2ccc(OC)cc2)cc1,-1.9%,/,/,1%
OC(COc1ccc(CNCCc2ccccc2F)cc1)CN1CCCCC1 (stereo not given),-5.2%,-5,0%,0%
CCN(CC)c1ccc2c(Nc3ccccc3)c(C=O)c(=O)oc2c1,?,-1,-16%,-23%
O=C1c2ccccc2C(=O)N1CCn1ccnc1,1.8%,/,-1%,-9%
Cc1ccccc1C(=O)c1c[nH]c(C(=O)NCc2cccs2)c1,-2.3%,3,-2%,-6%
CN1CCN(c2cnn(-c3ccccc3)c(=O)c2Br)CC1,0.1%,-15,-33%,-5%
COc1cccc(-c2csc(N3CCN(CC(=O)NNC(=O)c4ccc(Br)cc4)CC3)n2)c1,1.7%,-6,8%,1%
CCn1nc(NS(=O)(=O)c2ccc([N+](=O)[O-])cc2)c2cc3ccccc3nc21,-2.0%,/,0%,-17%
COc1ccccc1NC(=O)CSc1nnc(COc2ccc(Cl)cc2)o1,-1.0%,/,-4%,-3%
CC(=O)Nc1cccc(NC(=O)C2CCCN2C(=O)Nc2ccc(Cl)cc2)c1 (stereo not given),-0.4%,0,-1%,-3%
CC(C)CN(C(=O)COC(=O)c1cncc(Br)c1)c1c(N)n(Cc2ccccc2)c(=O)[nH]c1=O,1.9%,/,0%,-8%
CN(C)c1ccc(CNc2ncnc3sccc23)cc1,?,/,21%,4%
Nc1nonc1-c1nc2ccccc2n1CC(=O)N1CCCCC1,-1.6%,-1,-5%,19%
O=C(CN(C(=O)Cn1nnc(-c2ccc(F)cc2)n1)c1cccc(F)c1)NC1CCCC1,0.6%,/,5%,0%
COc1ccc(N2CCN(C(=O)c3ccc(OCc4c(C)noc4C)c(OC)c3)CC2)cc1,0.1%,3,-21%,26%
Cc1ccc(CN(CC(=O)NCCc2ccccc2)C(=O)c2csnn2)cc1,-0.6%,/,4%,1%
COc1ccccc1OCc1nnc(SCC(N)=O)n1-c1ccccc1,-4.5%,/,-4%,2%
Cc1ccc(NC(=O)Cc2nc(COC(=O)Cc3cccc(C(F)(F)F)c3)cs2)cc1,-5.6%,/,/,-11%
Cc1ccccc1CN1CCN(S(=O)(=O)c2ccc(F)cc2)CC1,4.7%,-4,-12%,-3%
COc1cc(CNCc2ccco2)cc(OC)c1O,8.2%,/,-2%,-12%
CN1/C(=C\C(=S)NC(=O)c2ccccc2Cl)C(C)(C)c2ccccc21,?,-8,10%,?
Cc1ccc(C(=O)NN(C)c2nc3ccccc3nc2C(F)(F)F)cc1,-0.6%,3,21%,7%
# The listing continues:
SMILES,Rango-impB inh,GLA inh pH 4.5,miR-21 FLuc,Rango release inh
CC(C)CC(=O)N1CCN(S(=O)(=O)c2ccc3ccccc3c2)CC1,-0.8%,6,5%,-2%
COCCOC(=O)C1=C(C)NC2=C(C(=O)CC(C)(C)C2)C1c1ccc(N(C)C)cc1 (stereo not given),?,2,-4%,14%
O=C(CCSc1nc2ccccc2o1)N1CCOCC1,?,2,-25%,1%
O=C(/C=C/c1ccco1)Nc1ccc2c(c1)OCO2,3.5%,0,-11%,3%
COc1cc(CN(C(=S)NCC(=O)NC2CCCC2)C2CCCC2)cc(OC)c1OC,-0.3%,1,-3%,-8%
NC1=NC[C@H](Cc2ccccc2)N1CCc1cccc(F)c1,-0.9%,6,5%,2%
COc1cc(CC2C(=O)Nc3ccccc32)cc(C)c1O (stereo not given),-0.2%,/,-10%,0%
O=C(c1ccccc1)c1ccc2nc(-c3ccc(NC(=O)c4ccccc4Br)cc3)[nH]c2c1,1.4%,-13,-20%,-7%
O=C(Nc1ccc(NS(=O)(=O)c2ccccc2)cc1)c1ccccc1Cl,-6.0%,/,/,1%
COCC(=O)Nc1ccc(C(C)C)cc1,0.8%,-5,-46%,0%
O=C(Cc1cccc(NC(=O)C2CCN(C(=O)c3ccccc3)CC2)c1)Nc1cccc(C(=O)N2CCOCC2)c1,?,/,/,-6%
COc1ccc(CNCc2ccc3c(c2)OCO3)cc1Br,-0.1%,/,-25%,8%
O=C(Nc1ccnn1C1CCN(C2CCC2)CC1)c1cccc(F)c1,-0.3%,/,-2%,-8%
CCOc1ccc(NC(=O)CN2C(=O)NC3(CCCC3)C2=O)cc1S(=O)(=O)N1CCCCC1,0.7%,/,/,-4%
O=S(=O)(c1ccc(Cl)cc1)N(Cc1ccccn1)Cc1ccccn1,-0.5%,/,0%,-13%
CCOc1ccccc1N1CCN(C(=O)C2=CC=CN3CCS(=O)(=O)N=C23)CC1,-4.2%,/,/,-1%
CCOC(=O)CNc1nc(Cl)nc(Nc2ccc(OC)cc2OC)n1,-4.8%,/,4%,-28%
O=C1C=C(Nc2cccc3cccnc23)c2ccccc2C1=O,?,/,3%,-2%
COC(=O)C(NC(C)=O)(Nc1cccc(C)n1)C(F)(F)F (stereo not given),-1.0%,-7,12%,5%
CCCCCC1CCC(c2ccc(C(N)=O)cc2)CC1 (stereo not given),1.1%,9,-3%,-16%
Cc1ccc[n+](CC(=O)c2ccc(Cl)cc2)c1,-1.7%,/,-3%,-10%
O=C(Nc1cccc(Cl)c1)N(CCN1CCOCC1)Cc1cccc(Cl)c1,4.2%,7,-3%,4%
